gsp agonist: qHTS for Agonist of gsp, the Etiologic Mutation Responsible for Fibrous Dysplasia/McCune-Albright Syndrome: qHTS; Potency, µM (doses to about 76.9 µM), for the others: at the highest dose activation (cAMP increase), most hits filed as activators; 0.13% of 340,000 active; gsp mutant cells, cAMP HTRF, 30 min; control for the full effect not named in the record; active = well fitted activation curve with a large enough effect; inconclusive = small, poorly fitted or top-dose-only effect, or another doubt; inactive = no such curve, though single readings can be large or run the other way; cell line not stated here;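 further: phosphodiesterase inhibitor Ro 20-1724 added with compounds to block cAMP breakdown; potency means the concentration at half of the fitted maximal effect; nearly all actives have a fitted effect of over 60% in size; about a fifth of the inactives were tested at one dose only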
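Cells in DMEM/10% FBS with G418 were pretreated with compounds in DMSO plus […] (300 uM stock) for 30 min at 37C. cAMP was measured by HTRF (cAMP-d2 plus anti-cAMP antibody-K) after 30 min at room temperature.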
Sfp PPTase inh: qHTS Assay for Inhibitors of Bacillus subtilis Sfp phosphopantetheinyl transferase (PPTase); 4'-phosphopantetheinyl transferase ffp (Bacillus subtilis), Q9F4F7; 3.5% of 310,000 active; Biochemical Sfp PPTase activity, qHTS; Potency, µM, for the others: max response, negative = inhibition, actives largely listed as inhibitors; active means well fitted inhibition curve with a large enough effect; inconclusive means small, poorly fitted or top-dose-only effect, or another doubt; inactive means no such curve, though single readings can be large or run the other way;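 further: the enzyme is Sfp with the accession as filed and its product quenches rhodamine fluorescence; potency means the concentration at half of the fitted maximal effect; 0% = enzyme reaction without inhibitor and -100% = no enzyme wells; top concentration of the series not given in the record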
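Compounds were incubated with enzyme (final 15 nM) for 15 min at room temperature before substrate addition started the reaction. Fluorescence at 525 nm excitation, 598 nm emission was recorded immediately and after 30 minutes.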
TRPML1 blocker: qHTS for Inhibitors of the Human Mucolipin Transient Receptor Potential 1 (TRPML1); 0.02% of 390,000 active; activity change, negative = inhibition, % (no concentration beside the values); Mucolipin-1 (Homo sapiens), Q9GZU1; TRPML1-inducible cells, Ca2+ dye fluorescence, FDSS; active compounds read low; inhibition of EC80 agonist-evoked calcium signal; AID 624415, 2012; in the data active means activity change below about -50%; inconclusive means about -30% to -50%; inactive means above about -30%;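 further: stimulus is agonist 54-4 at its EC80 concentration; on the % scale 0 is the no-effect control and ±100 the full control effect; compound concentration not given in the record; the text of the record puts the active cut at -80%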
Target sequence (Q9GZU1 whole entry, looked up): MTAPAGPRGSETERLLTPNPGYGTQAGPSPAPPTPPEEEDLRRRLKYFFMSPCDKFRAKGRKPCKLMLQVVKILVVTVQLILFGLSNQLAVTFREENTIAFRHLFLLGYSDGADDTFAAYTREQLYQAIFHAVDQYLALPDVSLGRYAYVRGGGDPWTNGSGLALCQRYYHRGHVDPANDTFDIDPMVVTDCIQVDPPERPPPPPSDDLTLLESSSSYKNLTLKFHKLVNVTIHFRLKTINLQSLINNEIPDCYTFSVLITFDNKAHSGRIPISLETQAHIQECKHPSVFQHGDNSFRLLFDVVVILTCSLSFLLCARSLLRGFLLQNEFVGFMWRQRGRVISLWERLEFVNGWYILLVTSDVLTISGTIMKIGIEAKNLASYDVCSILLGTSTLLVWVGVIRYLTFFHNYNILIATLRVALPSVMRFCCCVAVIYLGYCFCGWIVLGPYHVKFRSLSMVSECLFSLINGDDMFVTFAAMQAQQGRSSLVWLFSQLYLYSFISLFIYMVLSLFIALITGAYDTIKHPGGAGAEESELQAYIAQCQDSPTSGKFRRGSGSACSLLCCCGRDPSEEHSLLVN
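TRPML1-DL cells, Tet-induced overnight (~16 h, 37 °C) at 1,500 cells/well, were loaded with Ca8 no-wash dye plus quencher for 45-90 min at room temperature. Compounds were pinned during FDSS kinetic reading; agonist 54-4 at EC80 (4 uM final) then added.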
TRPV1 PAM: HTS Assay for Compounds that Act as Potentiators of the Vanilloid Receptor 1 | Transient receptor potential cation channel subfamily V member 1 (Homo sapiens), Q8NER1 | TRPV1-expressing cells, Fluo-8 calcium influx, capsaicin EC20 potentiation; host cell line not named in the record; control for the full effect not named in the record | potentiation, % at 8.33 µM | 0.02% of 320,000 active; active means potentiation above 80%; inconclusive means 30% to 80%; inactive means below 30%; further: 0% is about no effect
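TRPV1-expressing cells were cultured overnight at 35.5C and loaded with Fluo-8 calcium dye for 40 to 90 min at room temperature. After a 10 s baseline, compound was added and calcium influx was read kinetically for 3 min (ex 480/em 520 nm).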
Menin-MLL FL inh: qHTS Assay for Inhibitors Targeting the Menin-MLL Interaction in MLL Related Leukemias: Competition With Fluorescein Labeled MLL-derived Peptide; Fluorescence polarization, fluorescein-MLL peptide displacement from menin; FP activity change, % at 61.4 µM; 290,000 tested, under 10 active; AID 1766, 2009; inconclusive = falling polarisation curve, or a change in total fluorescence; inactive = total fluorescence flat and polarisation flat or rising; no compound was filed as active; the % refers to the polarisation; negative = inhibition;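 further: % of control where 0% means no effect; inhibitors lower the polarisation; unlabelled MLL peptide was the positive control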
gsp antagonist: qHTS for Antagonists of gsp, the Etiologic Mutation Responsible for Fibrous Dysplasia/McCune-Albright Syndrome: qHTS | 0.4% of 340,000 active | AID 624288, 2012 | Potency, µM (highest dose often 76.9 µM), for the others: top-dose activity change, negative = inhibition, most hits filed as inhibitors | gsp-mutant cells, cAMP HTRF, 30 min; control for the full effect not named in the record; active = falling curve of any shape with a large fitted effect; inconclusive = falling curve, mostly with a smaller effect; inactive = flat or rising curve; cell line not stated here;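 further: intracellular cAMP measured with PDE inhibitor Ro 20-1724 present during compound exposure; potency means the concentration at half of the fitted maximal effect; on the % scale 0 is the no-effect control and ±100 the full control effect; nearly all actives have a fitted effect of over 65% in size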
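HTRF cAMP measurement after 30 min RT detection following 30 min, 37C compound treatment alongside […] (added as 300 uM solution) in G418-selected cells seeded at 2000/well and grown 16–24 h.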
ClpP mod: qHTS Assay for Activators of ClpP | ATP-dependent Clp protease proteolytic subunit (Bacillus subtilis (strain 168)), P80244 | purified B. subtilis ClpP, FRET peptide cleavage, 20 min | Potency, µM (doses to about 57.5 µM), for inactives: at the highest dose activity change, negative = active | 1.9% of 340,000 active | AID 651965, 2013; active = well fitted falling curve with a large enough effect; inconclusive = small, poorly fitted or top-dose-only effect; inactive = no such curve, though single readings can be large or run the other way; further: potency means the concentration at half of the fitted maximal effect; the source files actives as falling curves though it sought activators and does not explain the sign; nearly all actives have a fitted effect of over 65% in size; many hits overshoot -100%
Target sequence (P80244 whole entry, looked up): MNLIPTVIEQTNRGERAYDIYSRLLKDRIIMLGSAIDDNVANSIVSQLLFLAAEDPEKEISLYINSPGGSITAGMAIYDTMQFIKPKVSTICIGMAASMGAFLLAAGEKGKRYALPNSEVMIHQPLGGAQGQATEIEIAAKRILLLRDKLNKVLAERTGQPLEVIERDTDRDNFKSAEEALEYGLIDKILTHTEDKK
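ClpP 10 microg/mL final, pH 8 Tris/KCl buffer with BSA, glycerol, Tween-20; compound pinned in; FRET-FV substrate; RT 20 min; Ex320/Em430; ΔFRET vs ADEP 5.8 microM, DMSO, no enzyme.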
Numbers without * were called inactive; u = inconclusive; x = not tested or not shown; [ ] = another dose, or the depositor's remark. Compounds as they come; 4.9% or so of the library scored in one or more.

Second line of a record – gsp agonist, Sfp PPTase inh, TRPML1 blocker, TRPV1 PAM, Menin-MLL FL inh, gsp antagonist, ClpP mod
COc1ccc(O)c(/C=N/NC(=O)c2ccc(N3CCCC3=O)cc2)c1
 : 25%, 11%, 14, -4, 0.4, 0%, x
COc1cc2c(cc1OC)C(c1cccc([N+](=O)[O-])c1)NC(=O)C2 (centres undefined)
 : u, 19%, 12, 0, -3.0, -4%, -1.2%
O=C1CN2NC(=S)N(c3ccccc3)C2=CN1c1ccc(Cl)cc1
 : -31%, 16%, -9, 1, 3.3, 8%, -2.5%
CNC(=O)C(Sc1nc(C)nc2c1oc1ccccc12)C(C)=O (centres undefined)
 : u, 50µM*, -3, -19, u, 27%, -4.5%
O=C(c1cc(-c2cccs2)nc2ccccc12)N1CCN(CCO)CC1
 : 1%, x, -6, -2, x, -5%, u
Cc1ccc(C(=O)Nc2cccc(C(=O)O)c2)cc1S(=O)(=O)N1CCCCC1
 : -1%, -10%, 17, u, 2.2, 6%, -5.5%
CCN1CCCC1CNS(=O)(=O)c1cc(Br)cc2c1N(C(=O)C1CC1)CC2 (centres undefined)
 : 0%, 19%, -4, 1, -0.8, 13%, -2.0%
CCOC(=O)C1=C(c2ccccc2)Nc2ncnn2C1c1cc(OC)cc(OC)c1OC (centres undefined)
 : -35%[inhibitor], 10%, 13, -10, 0.9, -6%, 0.1%
Cc1cc(C(=O)CCl)c(C)n1-c1ccon1
 : -5%, 12%, -13, 6, 0.1, 2%, x
COc1cc(CC(=O)OCc2cccc([N+](=O)[O-])c2)cc(OC)c1OC
 : -4%, 10%, 23, 15, -0.9, -6%, x
CCCCC(=O)Nc1cccc(NC(=O)c2ccc(Br)o2)c1
 : 7%, 26%, 16, 8, 7.4, -2%, -1.3%
Cc1[nH]c2ccc(C(=O)OC(C)C(=O)NC3(C#N)CCCCC3)cc2c1C (centres undefined)
 : -17%[15.4 µM], x, -7, -4, x, -3%, x
C=CCc1ccc(OCCCOc2ccc(C)c(C)c2)c(OC)c1
 : -55%[inhibitor], 1%, -11, -6, 7.1, 5%, 3.6%
S=C(c1ccc(OCc2ccccc2)cc1)N1CCCC1
 : -16%, 7%, x, -15, 2.3, -4%, 0.3%
CC1(c2ccccc2Cl)NC(=O)N(CC(=O)N2CCN(S(=O)(=O)c3ccccc3)CC2)C1=O (centres undefined)
 : 5%, x, 2, 22, x, 2%, 3.6%
Cc1cccc(-n2c(C)cc(C=C3C(=O)c4ccccc4C3=O)c2C)c1
 : -48%[inhibitor], -24%, -7, -9, u, 0%, -2.5%
Cc1[nH]c(C(=O)N/N=C/c2ccc(N(C)C)cc2)c(C)c1C(=O)N/N=C/c1ccc(N(C)C)cc1
 : u, 17%, 6, 1, 15, -8%, 3.5%
COC(=O)c1cn(-c2ccccc2)nc1-c1ccc(OC)cc1
 : -18%, -9%, 4, 21, 1.5, -17%, -19%
CCNc1nc2c(c(=O)[nH]c(=O)n2C)n1CCCc1ccccc1
 : -27%, 16%, x, -2, -4.2, -1%, -4.9%
COC(=O)c1cc2ccsc2n1Cc1nc(-c2cccc(Cl)c2)oc1C
 : 2%, 20%, -11, 8, -0.6, -10%, -20%
O=C(Cc1c(Cl)cccc1Cl)Nc1cccc(S(=O)(=O)N2CCOCC2)c1
 : -23%[15.4 µM], 19%, -7, -1, 0.4, -6%, x
COc1cccc(CNC(=O)CNC(=S)N(Cc2ccccc2)Cc2ccccc2F)c1
 : 12%[15.4 µM], 16%, 29, -22, -2.7, -15%, x
COCCNCCCOc1ccc(Br)cc1Cl
 : -13%, 6%, -4, 3, 0.6, 12%, -1.2%
O=C(NCc1cccc2[nH]ccc12)C1CCC(=O)N(CCc2ccccc2)C1 (centres undefined)
 : 20%, 10%, 1, 9, x, -8%, -1.9%
S=C(c1ccccc1)N1CCCc2ccccc21
 : 18%, -12%, 6, 6, 3.1, -2%, -2.3%
CCOC(=O)C1(C)NC(c2cc(OC)c(OC)c(OC)c2)C2C(=O)N(CC)C(=O)C21 (centres undefined)
 : 8%, 5%, -3, 3, 0.7, 7%, -1.5%
COC(=O)c1ccc(NC(=O)CCN2C(=O)C3CC=CCC3C2=O)cc1 (centres undefined)
 : 11%, x, -20, -5, x, 10%, 0.1%
Cc1ccc(N(CC(=O)NC2CCCCC2)C(=O)CNC(=O)c2cccs2)cc1
 : -13%[15.4 µM], 13%, -9, 4, 2.3, 4%, 0.3%
Cc1ccc(S(=O)(=O)N2CCN(CC(=O)NC(=O)NCc3ccco3)CC2)cc1C
 : -10%, 4%, 12, -12, -0.4, 3%, -1.3%
CCN[C@H]1CN(CCCOC)S(=O)(=O)c2sc(S(N)(=O)=O)cc21
 : x, x, -6, 7, x, 1%, -1.8%
CCn1ncc(Br)c1C(=O)Nc1cc(C)on1
 : 27%, 9%, 12, -27, 3.4, 6%, 1.0%
CCOC(=O)C1=NN(N=O)C2(CC(=O)N(c3cc(C)cc(C)c3)C2=O)C1 (centres undefined)
 : u, -13%, 3, -8, 14, -6%, 1.1%
COc1cccc(C(=O)NNS(=O)(=O)c2ccc(C)cc2)c1
 : -52%[inhibitor], 18%, -5, 7, -2.0, -3%, x
Cc1cc(C)nc(N/C(=N\S(=O)(=O)Cc2ccccc2)Nc2ccccc2Br)n1
 : 29%, -11%, 3, 3, 1.2, 11%, -1.2%
O=C(c1ccc2oc(Cc3ccc(Cl)cc3)nc2c1)N1CC[C@H](O)C1
 : u, 6%, 20, u, x, 10%, 0.2%
NC(=O)CC(NC(=O)Cc1cccc2ccccc12)c1ccc(NCCN2CCCCC2)c([N+](=O)[O-])c1 (centres undefined)
 : 0%, 10%, 40, -5, -7.0, 8%, -1.7%
C=CCNc1sc(C(=O)c2cccs2)c(N)c1C#N
 : -12%, 6%, 5, -31, -4.6, 14%, -2.1%
CC(C)Oc1ccc(CNC(=O)c2ccc3c(c2)N(C)CCS3)cc1
 : u, 5%, 17, -23, -1.0, -24%, 3.8%
CC(C)C[C@H]1COCCS(=O)(=O)N1Cc1ccc(Cl)c(Cl)c1
 : -3%, x, -3, x, x, -5%, 1.4%
CNc1nc(C)nc(-n2nc(C)cc2C)n1
 : 8%, 2%, -11, 4, 6.4, 2%, 0.8%
Cc1cc(C)c2sc(N(CCN(C)C)C(=O)CCS(=O)(=O)c3ccccc3)nc2c1
 : -4%[15.4 µM], -12%, 10, -15, 3.6, -6%, 1.5%
O=C(CSc1nnc(CNC(=O)c2ccco2)o1)Nc1ccccc1
 : -18%, 8%, -8, 17, -3.6, -1%, -0.3%
c1csc(-c2nnsc2-c2nc3ccccc3[nH]2)c1
 : 0%, -22%, 20, -15, 9.4, 1%, -1.6%
CCOC(=O)C1=C(C)NC(C)=C(C(=O)OCC)C1C(=O)OCC(=O)N(C)Cc1ccccc1
 : 2%, x, 2, x, x, 3%, x
Nc1ccccc1SCCS(=O)(=O)c1ccc(Cl)cc1
 : 30%, 4%, 16, -20, -1.3, 2%, -0.2%
CC(=O)c1c(NCCc2ccccc2)nc(=S)n(-c2ccccc2)c1C
 : -2%, -10%, -12, -12, -1.1, -18%, -1.5%
Cc1oc2cc3oc(=O)c(CC(=O)N[C@@H](C)C(=O)NC(Cc4ccc(Cl)cc4)C(=O)O)c(C)c3cc2c1C (some centres undefined)
 : x, 26%, x, 5, -2.0, -13%, -26%
CCCNC(=O)/C=C/c1ccc(S(=O)(=O)Nc2ccccc2OC)cc1
 : 10%, -7%, 11, -7, -0.8, -10%, x
O=C1NN(c2ccc(Br)cc2)C(=O)/C1=C\c1ccc(O)cc1O
 : 10%, 14%, 2, 2, u, -6%, x
N#Cc1ccc(C(=O)Nc2nnc(-c3ccco3)o2)cc1
 : -1%[15.4 µM], 24%, -12, 7, -5.9, -6%, x
COc1ccc(S(=O)(=O)N(CC(=O)NCc2ccco2)c2ccccc2)cc1OC
 : 6%, 14%, 22, -2, -1.7, 1%, -3.4%
Cc1ccccc1N1CCN(c2ncnc3scc(-c4cccs4)c23)CC1
 : u, -12%, 33, 0, 1.8, -8%, u
O=C(/C=C/c1cccc(Cl)c1)N1CCC(Cc2ccccc2)CC1
 : 2%, -31%, u, -9, -1.0, u, -1.4%
Cc1onc(-c2c(F)cccc2Cl)c1C(=O)N1CCCc2ccccc21
 : 0%, 18%, 1, -18, 1.4, u, -0.1%
COc1ccccc1C(=O)N/N=C/c1ccc(Cl)s1
 : -12%[15.4 µM], -22%, -1, -26, 3.1, -1%, -4.3%
CC(=O)N(CC(C)(C)CC=C(C)C)c1ccccc1
 : x, -5%, x, -12, -1.6, x, x
Cc1cc(C)c(C(=O)CSc2nnc(N)s2)c(C)c1
 : -39%, 8%, -15, 4, 2.1, -26%, -2.4%
COc1ccc(-c2cc(C(=O)Nc3c(C)nn(Cc4ccc(Cl)cc4)c3C)no2)cc1
 : 18%, 12%, -12, -5, 7.4, 14%, -13%
CCOC(=O)C1(C)C=C(Nc2ccc(O)cc2)C(=O)N1c1ccc(O)cc1 (centres undefined)
 : -53%[inhibitor], 50µM*, 12, -13, 1.7, u, 0.2%
CC(=O)c1c(C)[nH]c(C(=O)CSc2nnc(-c3cccs3)n2Cc2ccccc2)c1C
 : -1%, 2%, 2, 2, 10, -6%, -2.0%
COc1ccc(C)cc1N(C(=O)c1ccccc1)c1nc2ccccc2s1
 : 11%, 4%, 11, u, 0.6, 4%, -4.7%
COc1ccc(-n2cc(-c3ccc(Cl)cc3)[nH]c2=S)cc1
 : 8%, 2%, -1, x, 1.8, 12%, u
Cc1ccc(NC(=O)CN2C(=O)NC(C)(CC(C)C)C2=O)cc1F (centres undefined)
 : 0%, x, 13, x, x, 3%, x

Assay outcomes (PubChem)
